Bioassay records from PubChem.
KCNQ2 inh – KCNQ2 channel blockers in CHO-K1 cells – cell-based, FluxOR thallium flux, B-score, primary screen (AID 2156) | 310,000 compounds, 1.1% hits | O88943 | B-score at 10 µM | 20 min; hits give low values; only compounds with negative scores are shown here; some inactives read as strong as hits;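 active = fluorescence ratio B-score at most minus 3 library SDs, with starting brightness B-score within 2 library SDs, cut at about -5.5 in these data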
Target sequence (O88943 whole entry, looked up): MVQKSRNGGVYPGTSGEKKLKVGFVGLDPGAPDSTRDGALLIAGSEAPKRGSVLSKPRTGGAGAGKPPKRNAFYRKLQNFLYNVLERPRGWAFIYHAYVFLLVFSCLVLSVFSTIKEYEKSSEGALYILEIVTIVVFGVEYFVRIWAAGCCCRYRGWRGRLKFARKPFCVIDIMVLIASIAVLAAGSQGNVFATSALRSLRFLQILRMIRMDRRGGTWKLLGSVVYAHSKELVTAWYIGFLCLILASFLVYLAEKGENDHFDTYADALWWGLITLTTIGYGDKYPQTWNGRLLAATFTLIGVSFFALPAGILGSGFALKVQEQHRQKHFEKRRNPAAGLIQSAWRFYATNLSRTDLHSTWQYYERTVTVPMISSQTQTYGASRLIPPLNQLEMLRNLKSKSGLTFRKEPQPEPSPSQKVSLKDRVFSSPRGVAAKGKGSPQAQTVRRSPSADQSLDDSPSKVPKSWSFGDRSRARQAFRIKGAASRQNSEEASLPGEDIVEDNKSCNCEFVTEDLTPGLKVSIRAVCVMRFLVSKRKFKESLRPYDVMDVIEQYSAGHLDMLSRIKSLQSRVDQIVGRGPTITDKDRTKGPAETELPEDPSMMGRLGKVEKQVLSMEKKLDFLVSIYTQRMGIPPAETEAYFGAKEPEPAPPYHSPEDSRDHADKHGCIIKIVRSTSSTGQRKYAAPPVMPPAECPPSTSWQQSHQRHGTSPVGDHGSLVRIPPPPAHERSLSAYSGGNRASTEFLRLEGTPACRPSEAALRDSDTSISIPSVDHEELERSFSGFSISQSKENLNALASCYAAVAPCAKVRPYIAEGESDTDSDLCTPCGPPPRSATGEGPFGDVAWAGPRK
KCNQ2 inh baseline – also measured in KCNQ2 inh; calls as there; B-score; measured here: initial fluorescence intensity artifact check;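 brightness before thallium and not channel activity; 0 = typical well and far values either way flag optical interference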
* marks the source's active call; other numbers are inactive results; i = inactive.

Every second line gives: KCNQ2 inh, KCNQ2 inh baseline
> Cc1cc(=O)c2ccccc2n1Cc1ccccc1
  i, 1.5
> O=C(CN(Cc1ccccc1Cl)C(=O)Cn1nnc(-c2cccs2)n1)NCC1CCCO1 (stereo not given)
  i, 1.8
> COc1ccc(C(=O)OCC(N)=O)cc1[N+](=O)[O-]
  i, 0.47
> COC(=O)c1c(CSc2ccc(C)c(C)c2)noc1C(=O)NCc1ccc(OC)cc1
  i, -1
> O=C(NCc1ccco1)c1cc(-c2ccco2)on1
  i, 0.05
> c1ccc(C(c2nnnn2Cc2ccco2)N2CCN(c3nc4ccccc4s3)CC2)cc1 (stereo not given)
  i, -1.4
> O=[N+]([O-])c1ccc(-n2nnnc2-c2ccccc2)cc1
  i, -0.5
> CCC1Nc2ncnc(N3CCN(c4ccccc4)CC3)c2N(Cc2ccc(OC)cc2)C1=O (stereo not given)
  i, 0.91
> Cc1cccc(NC(=O)CC2CCC2)c1
  i, -0.67
> O=C(Nc1ncn[nH]1)c1ccc(S(=O)(=O)N2CCOCC2)cc1
  i, -1.9
> C[C@@H]1CCC(=O)N(C[C@@H](C)CC#N)CC1
  i, -0.09
> Cc1ccsc1CNC1CCCCC1
  i, 0.35
> COc1ccc(OC)c(NC(=O)c2cccc(S(=O)(=O)N(Cc3ccccc3)c3ccccc3OC)c2)c1
  i, -0.38
> Cc1ccc(CSc2nc3ccccc3c(=O)n2C)cc1
  i, 0.65
> Cc1cc2occ(CC(=O)NC3CCCc4ccccc43)c2cc1C (stereo not given)
  i, -0.95
> COc1cccc(C2CC(=O)N3CN(c4ccccc4F)CSC3=C2C#N)c1 (stereo not given)
  i, -0.75
> CC(=O)c1cc(-c2ccccc2)n(CC(=O)N2CCC(C)CC2)c1C
  i, -1
> O=C(Nc1ccc(Oc2ccc(S(=O)(=O)N3CCOCC3)cn2)cc1)c1ccco1
  i, -2.1
> CCOC(=O)c1cc(-c2ccc(C)cc2)n(CCC(=O)NCCN(C)C)c1C
  i, 0.26
> CCn1cc(CCCC(=O)NCc2ccccc2OC)c2ccccc21
  i, -1.9

(next part)
Every second line gives: KCNQ2 inh, KCNQ2 inh baseline
> CNC(=S)N(CCN(C)C)Cc1cc2cc3c(cc2[nH]c1=O)OCO3
  i, 0.54
> O=C(c1cc2sccc2n1Cc1ccc(F)cc1)N1CCCc2ccccc21
  i, -0.5
> Nc1cc(N)cc(-c2nc3ccccc3o2)c1
  i, -2
> O=C(CNc1cccc(Cl)c1)NNC(=S)NCc1ccccc1
  i, 0.01
> OCCSc1ncnc2c1oc1ccccc12
  i, -0.11
> Cn1c(Cn2cnc([N+](=O)[O-])n2)nnc1SCC(=O)Nc1ccccc1
  i, -0.08
> Cc1cc(C)cc(Oc2ncnc3c2ncn3Cc2c(Cl)cccc2Cl)c1
  i, 1.3
> CCNc1nc(NCC)n2c(SCc3nc4ccccc4c(=O)[nH]3)nnc2n1
  i, 1.1
> Cc1cccc(-c2noc(CN(C(C)C)S(=O)(=O)c3ccc(F)cc3)n2)c1
  i, -0.55
> COC(=O)C1(C(O)C(=O)c2ccc(C)cc2C)CCCCC1 (stereo not given)
  i, 0.42
> Clc1cccc(-c2nnc(SCc3nc4ccccc4[nH]3)n2Cc2ccco2)c1
  i, -0.72
> Cc1c(C(=O)Nc2ccccc2Cl)oc2ccc(S(=O)(=O)N3CCC4(CC3)OCCO4)cc12
  i, 0.22
> C/C(=C\C(=O)c1ccc(Cl)s1)N(C)C
  i, -0.06
> O=C(Nc1cccnc1Oc1ccc(Cl)cc1)c1cccc2ccccc12
  -6*, -0.1*
> COc1cc2c(cc1OC)C(C)N(C(=O)c1c(C)noc1C)CC2 (stereo not given)
  i, -0.46
> COCCN1C=C(C(=O)OC)C(c2ccccc2C(F)(F)F)C(C(=O)OC)=C1
  i, 0.48
> FC(F)(F)c1cc(C(F)(F)F)n2nc(-c3sccc3-n3cccc3)cc2n1
  i, -0.45
> O=C(Nc1ccc(N2CCOCC2)cc1)c1ccc(S(=O)(=O)NCc2ccco2)cc1
  i, 1.6
> NNC(=O)c1ccc(Cn2cc(Br)cn2)o1
  i, -0.14
> O=C(CSc1nnc(-c2ccncc2)n1Cc1ccco1)OC1CCCCC1
  i, -0.24

3 entries already listed, arranged by heavy-atom count, smallest number first.
Every second line gives: KCNQ2 inh, KCNQ2 inh baseline
> COC(=O)C1(C(O)C(=O)c2ccc(C)cc2C)CCCCC1 (stereo not given)
  i, 0.42
> O=C(Nc1cccnc1Oc1ccc(Cl)cc1)c1cccc2ccccc12
  -6*, -0.1*
> Clc1cccc(-c2nnc(SCc3nc4ccccc4[nH]3)n2Cc2ccco2)c1
  i, -0.72

More entries.
Every second line gives: KCNQ2 inh, KCNQ2 inh baseline
> CN1CCN(C(=S)c2cn(Cc3ccc(Br)cc3)c3ccccc23)CC1
  i, 0.89
> CCOC(=O)c1ccccc1NC(=O)COc1coc(CN2CCc3ccccc32)cc1=O
  i, -1.7
> NC(=O)C1(N2CCCCC2)CCN(c2ccc3nnc(-c4ccccc4)n3n2)CC1
  i, -0.66
> CCC(C)(C)n1nnnc1CN(Cc1cc2cc(OC)c(OC)cc2[nH]c1=O)C1CCCC1
  i, -1.4
> CN1C(=O)C2(c3ccccc31)N(C)CC(c1ccccn1)C21SC(=S)N(Cc2ccco2)C1=O (stereo not given)
  i, -0.4
> Cc1ccc(-n2c(CNc3cccc(Cl)c3)n[nH]c2=S)cc1
  i, -1.1
> COc1ccc(C(=O)Nc2ccc(-c3nnn(CC(=O)N4CCN(C(=O)c5ccco5)CC4)n3)cc2)cc1
  i, 0.02
> Clc1ccc(-c2noc(CCCc3ccccc3)n2)cc1
  i, 1.6
> COCCNC(=O)CSc1c2c(nc3ccc(Cl)cc13)CCCC2
  i, -0.51
> Cc1cccc(N2CCN(C(=O)CC(NC(=O)c3ccccc3Cl)c3ccccc3)CC2)c1C (stereo not given)
  i, 0.1
> O=C(CN(C(=O)c1csnn1)c1cccc2c1CCCC2)NC1CCCC1
  i, 0.84
> COc1ccc(C(=O)CCN2CCc3cc(OC)c(OC)cc3C2)cc1
  -9.6*, 0.32*
> CCN(c1ccccc1)S(=O)(=O)c1ccc(C(=O)OC(C)C(=O)NCCC2=CCCCC2)cc1 (stereo not given)
  i, -0.07
> COc1ccc(N(CC(=O)N/N=C/c2ccc(-c3ccc([N+](=O)[O-])cc3)o2)S(=O)(=O)c2ccc(C)cc2)cc1
  i, -0.85
> COC(=O)c1ccc(C2C(C(=O)OCC(C)C)=C(C)N=C3SCCC(=O)N32)cc1 (stereo not given)
  i, 0.05
> Oc1ccc2ccccc2c1/C=N/c1nc2c(s1)CCCC2
  i, 1.9
> COc1ccc(/C=C/C(=O)O)cc1S(=O)(=O)N1CCc2ccccc21
  i, -0.94
> CC(=O)CSc1nnc(-c2ccco2)n1-c1ccccc1
  i, -0.74
> N#Cc1c(NCCN)nc(-c2ccccc2)c2c1CCCC2
  i, 0.16
> O=C(Nc1cc([N+](=O)[O-])ccc1Cl)C1CC1
  i, 0.14

Next section:
Every second line gives: KCNQ2 inh, KCNQ2 inh baseline
> COc1ccc(OC(=O)c2ccncc2)cc1
  i, -0.04
> FC(F)(F)COc1ccc(-c2nnc(SCc3c(Cl)cccc3Cl)o2)cn1
  i, 0.42
> N#C/C(=C\C=C\c1ccccc1)c1nc(-c2ccc3c(c2)OCO3)cs1
  i, 2.4
> COc1ccccc1N(C)S(=O)(=O)c1ccc(C(=O)NCc2ccc3c(c2)OCO3)cc1
  i, 2.5
> Cc1ccc(N2C3=C(C(=O)CC(C)(C)C3)C(c3cn(C)nc3C)C3=C2CC(C)(C)CC3=O)cc1
  i, 1.3
> COc1ccc(OCC(=O)N/N=C(\CCC(=O)O)c2cccs2)cc1
  i, -0.87
> CCn1c(/C=C/c2ccc(O)c(O)c2)nc2ccccc2c1=O
  i, -0.3
> CCN(CC)CCCN1CC(O)=C(c2nc3ccccc3s2)C1=N
  i, -0.1
> O=C(Cc1ccccc1)N1CCN=C1SCc1ccc([N+](=O)[O-])cc1
  i, 0.97
> Cc1ccc(C)c(N2CCN(C(=O)C34CC5CC(C3)CC(n3nnc(C)n3)(C5)C4)CC2)c1
  i, -1.1
> CCOC(=O)CN1C(=O)C2Cc3ccccc3CN2C1=S (stereo not given)
  i, 2
> O=c1oc(-c2ccccc2Cl)nc2ccsc12
  i, -1.4
> CC(=O)N1CCN(S(=O)(=O)c2cccc(C(=O)Nc3nc4ccccc4[nH]3)c2)CC1
  i, 2.8
> CCOC(=O)N1CCN(c2c(NCCN3CCN(Cc4ccccc4)CC3)c(=O)c2=O)CC1
  i, 0.01
> Clc1ccc(C2[C@H]3CN(Cc4cccnc4)[C@H](c4ccccc4)C34CC2(c2cccnc2)C4)cn1 (stereo not given in full)
  i, -0.07
> CC(C)Oc1ccc(N2CC(C(=O)Nc3ccccn3)CC2=O)cc1 (stereo not given)
  i, -0.82
> COc1ccc(S(=O)(=O)CCC(=O)NCc2ccc(C)o2)cc1
  i, -0.5
> CCOC(=O)c1c(NC(=O)CSc2nnc(CNc3ccc(F)cc3)o2)sc(C(C)=O)c1C
  i, 0.13
> Cc1cc2c3c([nH]c2cc1S(=O)(=O)N1CCC2(CC1)OCCO2)CCCC3=O
  i, -0.17
> Cc1ccc(C(C(=O)NC2CCCC2)N(Cc2ccc(F)cc2)C(=O)c2snc(C(N)=O)c2N)o1 (stereo not given)
  i, 1.4

Given with each value named: part of the list above
CCn1c(/C=C/c2ccc(O)c(O)c2)nc2ccccc2c1=O
  KCNQ2 inh = i | KCNQ2 inh baseline = -0.3
CCOC(=O)c1c(NC(=O)CSc2nnc(CNc3ccc(F)cc3)o2)sc(C(C)=O)c1C
  KCNQ2 inh = i | KCNQ2 inh baseline = 0.13
CCOC(=O)N1CCN(c2c(NCCN3CCN(Cc4ccccc4)CC3)c(=O)c2=O)CC1
  KCNQ2 inh = i | KCNQ2 inh baseline = 0.01
CCN(CC)CCCN1CC(O)=C(c2nc3ccccc3s2)C1=N
  KCNQ2 inh = i | KCNQ2 inh baseline = -0.1

Ordered by value in KCNQ2 inh baseline (descending): some entries from above
Every second line gives: KCNQ2 inh, KCNQ2 inh baseline
> COc1ccc(OC(=O)c2ccncc2)cc1
  i, -0.04
> CCN(CC)CCCN1CC(O)=C(c2nc3ccccc3s2)C1=N
  i, -0.1
> CC(C)Oc1ccc(N2CC(C(=O)Nc3ccccn3)CC2=O)cc1 (stereo not given)
  i, -0.82

New compounds follow
SMILES	KCNQ2 inh	KCNQ2 inh baseline
CCOc1ccc(CCNC(=O)c2ccc(S(=O)(=O)N3CCCC3)cc2)cc1OCC	i	-1.6
O=C(NCc1ccc(Cl)cc1)c1ccc2c(=O)n(CC3CCCO3)c(=S)[nH]c2c1 (stereo not given)	i	-1.5
CCOC(=O)N1CCc2c(sc3ncn(Cc4ccc(F)cc4)c(=O)c23)C1	i	0.4
CCc1nc2ccc(C(=O)NCCCN3CCN(c4ccc(F)cc4)CC3)cc2nc1CC	i	-0.89
Cc1c(Cl)c([N+](=O)[O-])nn1CCCC(=O)N1CCN(c2ccccc2)CC1	i	1
N#CC1(Cc2ccccc2Cl)c2ccccc2C=CN1C(=O)c1ccccc1 (stereo not given)	i	-0.14
O=C1CCCN2N=C(SCC(=O)Nc3cccc(C(F)(F)F)c3)SC2=N1	i	-0.39
Cc1cc(NC(=O)CC2(CC(=O)O)CCCC2)n(C)n1	i	1.1
O=C(O)CCCC(=O)Nc1ccccc1Oc1ccccc1	i	0.95
CCN1CCc2c(sc(NC(=O)c3ccc(S(=O)(=O)N4CC(C)OC(C)C4)cc3)c2C(N)=O)C1 (stereo not given)	i	-0.45

More compounds.
SMILES	KCNQ2 inh	KCNQ2 inh baseline
O=C(N/N=C\c1ccc(Cl)s1)c1cccs1	i	-0.17
O=S(=O)(Nc1ccc(Cc2ccncc2)cc1)c1ccc(Cl)cc1	i	-0.59
O=c1cc(C23CC4CC(CC(C4)C2)C3)[nH][nH]1	i	-0.28
CCC(NS(=O)(=O)c1ccc(C)cc1)C(=O)N1CCOCCOCCOCC1 (stereo not given)	i	0.28
COc1ccc(-c2[nH]c(-c3cc(OC)c4c(c3)OCO4)nc2-c2ccccc2)cc1	i	-0.97
CN(C)c1nccc(Nc2ccccc2)c1C#N	i	-0.05
Cc1nc2ccc(NC(=O)c3ccc(Cl)c(NC(=O)c4cccs4)c3)cc2s1	i	0.39
CCNC(=O)COC(=O)c1cc(-c2ccco2)nc2ccccc12	i	0.82
COc1ccccc1NC(=O)C(C/C=C(\C)Cl)C(C)=O (stereo not given)	i	0.07
CCCC(c1nnnn1CS(=O)(=O)c1ccc(C)cc1)N1CCC(C(N)=O)CC1 (stereo not given)	i	-0.22

The list goes on:
SMILES	KCNQ2 inh	KCNQ2 inh baseline
CN1C(=O)c2cccc(NC(=O)C3CCCCC3)c2C1=O	i	0.31
Cc1nnc(SCc2ccccc2CSc2nnc(C)s2)s1	i	0.14
COc1ccc(CN2C(=O)C(C)N(C(=O)c3c(F)cccc3F)c3ccccc32)cc1 (stereo not given)	i	-0.06
CC1(C)CC(NC(=O)c2ccccc2)CC(C)(C)N1	i	0.08
C/C(=N\NC(=O)c1cnccn1)c1ccc([N+](=O)[O-])cc1	i	0.01
COc1ccc(/C=N/NC(=O)C2C(=O)NCC2c2ccccc2)c(OC)c1 (stereo not given)	i	-1
Cc1onc(-c2ccccc2Cl)c1C(=O)N1CCN(C/C=C/c2ccccc2)CC1	i	-0.01
COc1ccccc1CNC(=O)/C=C/C(=O)O	i	0.02
CCN(CC)CCN1C(=O)C(O)=C(C(=O)c2cc3cccc(OC)c3o2)C1c1cccs1 (stereo not given)	i	0.18
CCOc1ccc(N(C)c2ccc(/C=C3/SC(=S)NC3=O)cc2)cc1	i	0.27

Following part.
SMILES	KCNQ2 inh	KCNQ2 inh baseline
CC(C)CC(=O)N=Nc1c(O)[nH]c2ccccc12	i	-0.1
COc1cc(NC(=O)c2cc(C(C)C)on2)c(OC)cc1Cl	i	-1.8
Cc1cc(C)c(S(=O)(=O)N2CCCCC2CCNC(=O)C(=O)NCc2cccnc2)c(C)c1 (stereo not given)	i	0.29
O=C(COc1nc2ccccc2nc1N1CCOCC1)Nc1ccc(S(=O)(=O)N2CCCC2)cc1	i	-0.11

These rows are one share of the data; rates above refer to the full screens.
